Screens (PubChem BioAssay)
MgcRacGAP = inhibition of MgcRacGAP-stimulated Rac1 GTP hydrolysis – biochemical, inorganic phosphate detection, orthogonal assay, confirmation (AID 652142). 2,400 tested, under 10 active. inhibition, %. MgcRacGAP/Rac1F28L GTP hydrolysis, Biomol green phosphate; active compounds read high; test concentration not given here; none was called active though about 1 in 100 pass the limit;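 active = inhibition over three standard deviations or about 65%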;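 also: full inhibition control lacks the GAP enzyme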
* marks the source's active call; other numbers are inactive results; & = joins results of further samples.

SMILES | MgcRacGAP
COc1ccc(CNCCc2ccc(Cl)cc2)c(OC)c1OC | 11.1
COc1cccc(CN2CCN(Cc3cccc(F)c3)CC2)c1 | 31.2
O=C1NC(=O)C(=Cc2ccco2)C(=O)N1 | 32.4
CCN1CCN(CC(c2ccccc2)c2ccccc2)CC1 | 11.4
CN(C)c1ccc(/C=C2/C(=N\O)C3CCN2CC3)cc1 | 33.3
CCc1ccc(CNCCc2c[nH]c3ccccc23)cc1 | 17.7
Cc1cccc(OCC(=O)N2CCN(Cc3ccncc3)CC2)c1 | 24.9
NCCc1cc(O)c(O)cc1O | 40.0&50.6
COc1cc(C=C2C(=O)NC(=O)NC2=O)ccc1OCc1ccc([N+](=O)[O-])cc1 | 27.2
O=C1NC(=O)C(=Cc2cc(Cl)ccc2OCc2ccc(C(=O)O)cc2)C(=O)N1 | 21.4
Oc1c(Br)cc(-c2ccccc2)cc1Br | 14.5
CC1CCCCN1Cc1cccnc1 (stereo unspecified) | 30.2
COc1ccc(/C=C2/C(=O)NC(=O)N(c3ccc(C)c(C)c3)C2=O)cc1CN1C(=O)c2ccccc2C1=O | 13.4
COc1ccc(/C=C2\C(=O)NC(=S)N(C)C2=O)cc1C | 26.2

A draw from above in order of SMILES length, highest first:
SMILES | MgcRacGAP
COc1ccc(/C=C2/C(=O)NC(=O)N(c3ccc(C)c(C)c3)C2=O)cc1CN1C(=O)c2ccccc2C1=O | 13.4
CCc1ccc(CNCCc2c[nH]c3ccccc23)cc1 | 17.7
O=C1NC(=O)C(=Cc2ccco2)C(=O)N1 | 32.4
CC1CCCCN1Cc1cccnc1 (stereo unspecified) | 30.2

In the list so far, these contain a Cl atom:
SMILES | MgcRacGAP
COc1ccc(CNCCc2ccc(Cl)cc2)c(OC)c1OC | 11.1
O=C1NC(=O)C(=Cc2cc(Cl)ccc2OCc2ccc(C(=O)O)cc2)C(=O)N1 | 21.4

These rows are one share of the data. The share of hits here may be higher or lower than overall.
